gsp agonist: gsp mutant agonism; actives 0.13% (n = 340,000); AID 624287; Potency, µM (highest dose often 76.9 µM), inactives show at the highest dose activation (cAMP increase), hits mostly activators; gsp mutant cells, cAMP HTRF, 30 min; control for the full effect not named in the record; active = well fitted activation curve with a large enough effect; inconclusive = small, poorly fitted or top-dose-only effect, or another doubt; inactive = no such curve, though single readings can be large or run the other way; cell line not stated here;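 note: phosphodiesterase inhibitor Ro 20-1724 added with compounds to block cAMP breakdown; potency is the fitted concentration of half-maximal effect; nearly all actives have a fitted effect of over 60% in size; about a fifth of the inactives were tested at one dose only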
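Cells stably selected in G418 were plated at 2000/well, grown 16-24 hr, then given compounds in DMSO with the PDE inhibitor […] (300 uM solution added) for 30 min at 37C; cAMP was read by HTRF.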
Menin MLL FP FL: menin-MLL binding inhibition, fluorescein peptide | 290,000 tested, under 10 active | FP activity change, % at 61.4 µM | Fluorescence polarization, fluorescein-MLL peptide displacement from menin; inconclusive = falling polarisation curve, or a change in total fluorescence; inactive = total fluorescence flat and polarisation flat or rising; no compound was filed as active; the % refers to the polarisation; negative = inhibition;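 note: % of control where 0% means no effect; inhibitors lower the polarisation; unlabelled MLL peptide was the positive control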
PINK1 modulator: changes PINK1 expression. PINK1 immunofluorescence, high-content cytometry, 24 h. Potency, µM (doses to about 76.6 µM), without a hit: at the highest dose activation (PINK1 increase), actives largely listed as activators. actives 0.2% (n = 410,000); active = well fitted activation curve with a large enough effect; inconclusive = small, poorly fitted or top-dose-only effect; inactive = flat fitted curve, though single readings scatter; cell line not stated here;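 note: potency is the fitted concentration of half-maximal effect; % of control where 0% means no effect; nearly all actives have a fitted effect of over 65% in size; a mitochondrial uncoupler was the plate control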
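Stable cell line, 250 cells/well, 12 h attachment; compounds pinned at 5 concentrations, 24 h; CCCP control. Fixed with nuclear dye, primary antibodies 12 h at 10 degrees C, secondary plus cell stain; laser-scanning cytometer read.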
D2 agonist: human D2 receptor agonism in beta-arrestin assay; DiscoveRx PathHunter D2 beta-arrestin, luminescence, 90 min; 100% = 57 uM dopamine signal; activation, % (concentration not given with the values); actives 0.084% (n = 360,000); in the data active = activation above about 40%; inconclusive = about 15% to 40%; inactive = below about 15%; note: compound concentration not given in the record; the text of the record calls up to 30% inactive
Target sequence (P14416 whole entry, looked up): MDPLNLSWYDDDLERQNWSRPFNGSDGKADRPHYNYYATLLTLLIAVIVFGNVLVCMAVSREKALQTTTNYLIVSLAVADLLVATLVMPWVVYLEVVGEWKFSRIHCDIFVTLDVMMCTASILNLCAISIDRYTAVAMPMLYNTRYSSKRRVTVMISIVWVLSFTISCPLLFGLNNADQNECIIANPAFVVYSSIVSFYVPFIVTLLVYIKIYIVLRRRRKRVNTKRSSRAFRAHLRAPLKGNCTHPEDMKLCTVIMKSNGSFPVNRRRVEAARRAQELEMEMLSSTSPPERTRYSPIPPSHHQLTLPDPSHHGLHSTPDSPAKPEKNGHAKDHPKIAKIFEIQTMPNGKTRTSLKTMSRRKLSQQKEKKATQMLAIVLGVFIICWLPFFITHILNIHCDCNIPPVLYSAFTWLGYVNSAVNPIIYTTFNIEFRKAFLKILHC
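DiscoveRx PathHunter D2 beta-arrestin cells (2,100/well) attached overnight, then compound-stimulated 90 min at 37 C in HBSS/10 mM HEPES/0.1% Tween-20 buffer; beta-galactosidase complementation read by luminescence after 1 h at ambient temperature. Dopamine 57 uM final (EC100) as control.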
gsp antagonist: antagonizes gsp, the McCune-Albright syndrome mutation; AID 624288; Potency, µM (top dose mostly 76.9 µM), inactives show at the top dose activity change, negative = inhibition, usual class: inhibitors; gsp-mutant cells, cAMP HTRF, 30 min; control for the full effect not named in the record; actives 0.4% (n = 340,000); active = falling curve of any shape with a large fitted effect; inconclusive = falling curve, mostly with a smaller effect; inactive = flat or rising curve; cell line not stated here;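 note: intracellular cAMP measured with PDE inhibitor Ro 20-1724 present during compound exposure; potency is the fitted concentration of half-maximal effect; % is set by controls: 0 for no effect and ±100 for the full control effect; nearly all actives have a fitted effect of over 65% in size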
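HTRF cAMP measurement after 30 min RT detection following 30 min, 37C compound treatment alongside […] (added as 300 uM solution) in G418-selected cells seeded at 2000/well and grown 16–24 h.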
ClpP mod: qHTS Assay for Activators of ClpP; ATP-dependent Clp protease proteolytic subunit (Bacillus subtilis (strain 168)), P80244; purified B. subtilis ClpP, FRET peptide cleavage, 20 min; Potency, µM (top dose mostly 57.5 µM), without a hit: at the top dose activity change, negative = active; actives 1.9% (n = 340,000); AID 651965, 2013; active = well fitted falling curve with a large enough effect; inconclusive = small, poorly fitted or top-dose-only effect; inactive = no such curve, though single readings can be large or run the other way; note: potency is the fitted concentration of half-maximal effect; the source files actives as falling curves though it sought activators and does not explain the sign; nearly all actives have a fitted effect of over 65% in size; many hits overshoot -100%
Target sequence (P80244 whole entry, looked up): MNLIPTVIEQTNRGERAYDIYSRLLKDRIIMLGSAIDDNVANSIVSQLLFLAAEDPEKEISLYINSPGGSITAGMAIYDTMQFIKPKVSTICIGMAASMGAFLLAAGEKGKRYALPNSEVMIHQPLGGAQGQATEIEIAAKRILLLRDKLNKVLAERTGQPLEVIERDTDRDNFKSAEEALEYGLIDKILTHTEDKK
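Buffer: 100 mM Tris/HCl pH8, 100 mM KCl, 0.05% low protease BSA, 2.5% glycerol, 0.01% Tween-20. ClpP 10 microg/mL final; 20 min RT; delta FRET normalized to ADEP and DMSO controls.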
Sfp inh: blocks B. subtilis Sfp PPTase activity. actives 3.5% (n = 310,000). Biochemical Sfp PPTase activity, qHTS. Potency, µM, inactives show max response, negative = inhibition, actives largely listed as inhibitors; active = well fitted inhibition curve with a large enough effect; inconclusive = small, poorly fitted or top-dose-only effect, or another doubt; inactive = no such curve, though single readings can be large or run the other way;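 note: the enzyme is Sfp with the accession as filed and its product quenches rhodamine fluorescence; potency is the fitted concentration of half-maximal effect; 0% = enzyme reaction without inhibitor and -100% = no enzyme wells; top concentration of the series not given in the record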
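Fluorescence-quenching assay with 15 nM Sfp, 5 uM rhodamine-CoA and 12.5 uM BHQ-2-labelled ybbR peptide in pH 7.6 Hepes/MgCl2 buffer. Enzyme was pre-incubated with compound for 15 min at room temperature. Rate was taken from the 30-min fluorescence change (525/598 nm).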
The depositor's hits bear a star; & = joins results of further samples; [ ] = remark or other dose.

The first 2 compounds, ahead of the listing:
`COC(=O)c1cc(C(=O)Nc2nnc(CC(C)C)s2)cc([N+](=O)[O-])c1` gave gsp agonist 14%[15.4 µM], Menin MLL FP FL 7.8, PINK1 modulator 1.1%, D2 agonist -0.2, gsp antagonist inconclusive, ClpP mod -5.7% and Sfp inh -2%.
For COc1cccc(NCc2cc(=O)oc3cc(C)c(C(C)C)cc23)c1 the results were gsp agonist 1%, Menin MLL FP FL -4.0, PINK1 modulator 2.4%, D2 agonist 4.6, gsp antagonist -7%, ClpP mod -3.2% and Sfp inh -8%.

The list itself, repeating the preview:
`COC(=O)c1cc(C(=O)Nc2nnc(CC(C)C)s2)cc([N+](=O)[O-])c1` gave gsp agonist 14%[15.4 µM], Menin MLL FP FL 7.8, PINK1 modulator 1.1%, D2 agonist -0.2, gsp antagonist inconclusive, ClpP mod -5.7% and Sfp inh -2%.
For COc1cccc(NCc2cc(=O)oc3cc(C)c(C(C)C)cc23)c1 the results were gsp agonist 1%, Menin MLL FP FL -4.0, PINK1 modulator 2.4%, D2 agonist 4.6, gsp antagonist -7%, ClpP mod -3.2% and Sfp inh -8%.
COc1ccc(C(=O)NC(NC(=O)c2ccc(OC)c(OC)c2)c2ccccc2F)cc1OC was read as gsp agonist -2%[15.4 µM], Menin MLL FP FL -1.1, PINK1 modulator 1.9%, D2 agonist -1.5, gsp antagonist 6% and Sfp inh -8%.
O=C(Nc1cccc(C(F)(F)F)c1)C(SCCO)c1ccccc1 (configuration not stated) was read as gsp agonist 31%[15.4 µM], Menin MLL FP FL 5.0, PINK1 modulator 1.0%, D2 agonist 1.9, gsp antagonist -10%, ClpP mod -19% and Sfp inh 6%.
Screening Cc1ccc(S(=O)(=O)Nc2ccc(Nc3nccn4c(-c5ccc6ccccc6c5)cnc34)cc2)cc1 returned PINK1 modulator -0.9%, D2 agonist 1.9 and ClpP mod -25%.
Screening O=C(O)c1ccc(NC(=O)C2C3CCC(C3)C2C(=O)O)cc1 (configuration not stated) returned gsp agonist 8%, Menin MLL FP FL -1.7, PINK1 modulator 0.6%, D2 agonist -2.2, gsp antagonist 1%, ClpP mod -2.8% and Sfp inh -5%.
`OCCN1CCN(c2cc(-c3ccc(CO)cc3)nc3ccnn23)CC1` gave PINK1 modulator 0.0%, D2 agonist -4.6 and ClpP mod 5.0%.
For C[C@]1(C(=O)NCCN2CCOCC2)C=C[C@@H](Cc2ccccc2)N1C(=O)c1ccccc1 the results were gsp agonist inconclusive, Menin MLL FP FL 3.3&0.9, PINK1 modulator 1.7%, D2 agonist -2.4, gsp antagonist 3%, ClpP mod 0.8% and Sfp inh 3%&12%.
Screening c1ccc(Cc2nc(-c3ccccn3)no2)cc1 returned gsp agonist -2%, Menin MLL FP FL 7.7, PINK1 modulator 1.9%[38.3 µM], D2 agonist 0.3, gsp antagonist 6%, ClpP mod 0.2% and Sfp inh -2%.
`Cc1cc(S(=O)(=O)NCC(C)C)ccc1OCC(=O)NCc1ccco1` gave gsp agonist 27%, Menin MLL FP FL 4.0, PINK1 modulator -1.4%, D2 agonist 6.3, gsp antagonist -11% and Sfp inh 4%.
Screening CCC1SC2=NCCN2C1(O)c1ccc(Cl)cc1 (configuration not stated) returned gsp agonist 0%, Menin MLL FP FL 2.7, PINK1 modulator 5.9%[38.3 µM], D2 agonist -0.3, gsp antagonist 5%, ClpP mod 0.3% and Sfp inh -2%.
Screening CNc1nc(OCC#N)nc(N2CCCCC2)n1 returned gsp agonist -1%[15.4 µM], Menin MLL FP FL 10, PINK1 modulator 9.8%, D2 agonist -4.5, gsp antagonist 7% and Sfp inh -22%.
Screening Cc1cc(C)n(Cc2ccc(C(=O)NN)o2)n1 returned gsp agonist -2%, Menin MLL FP FL 5.0, PINK1 modulator 0.4%, D2 agonist -1.2, gsp antagonist -10%, ClpP mod 0.1% and Sfp inh -16%.
For COC(=O)CN1C(=O)C(O)(CC(=O)c2ccc(Cl)cc2)c2ccccc21 (configuration not stated) the results were gsp agonist 20%, Menin MLL FP FL -1.9, PINK1 modulator 3.4%, D2 agonist -5.2, gsp antagonist -1%, ClpP mod 0.6% and Sfp inh 22%.
Screening Cc1cccc(CC(=O)NCCS(=O)(=O)N2CCN(c3ccccc3)CC2)c1 returned gsp agonist -11%, PINK1 modulator 0.7%, D2 agonist 4.7 and ClpP mod -1.2%.
For COc1ccc(NC(=O)C2(C)Cc3c(-c4ccc(NC(C)=O)cc4)ccnc3O2)cc1 (configuration not stated) the results were PINK1 modulator 5.7%, D2 agonist -3.4 and ClpP mod -23%.
For CCOc1ccc(-c2nnn(CC(=O)NCc3ccc4c(c3)OCO4)n2)cc1 the results were gsp agonist 6%, Menin MLL FP FL -0.9, PINK1 modulator -2.4%, D2 agonist 0.6, gsp antagonist -1%, ClpP mod -2.7% and Sfp inh -6%.
For CN(CC(=O)Nc1ccc(Cl)cc1)C(=O)c1ccc(-n2cncn2)c([N+](=O)[O-])c1 the results were gsp agonist -31%, PINK1 modulator -0.3%, D2 agonist 1.9, gsp antagonist 0% and ClpP mod -15%.
Screening COc1cc(C(=O)N2CCN(C(=O)COc3ccc4ccccc4c3)CC2)cc(OC)c1OC returned gsp agonist 26%, Menin MLL FP FL -0.8, PINK1 modulator -1.1%, D2 agonist 3.3, gsp antagonist -3%, ClpP mod -2.4% and Sfp inh -4%.
`CCCC(NS(=O)(=O)c1ccc(C)cc1)C(=O)O` (configuration not stated) gave gsp agonist -33%, Menin MLL FP FL -3.7, PINK1 modulator -4.3%, D2 agonist -1.6, gsp antagonist -8%, ClpP mod -0.5% and Sfp inh 15%.
Screening O=C(O)c1ccc(OCc2cn3ccccc3n2)cc1 returned gsp agonist 6%, Menin MLL FP FL 4.7, PINK1 modulator 2.1%, D2 agonist -1.0, gsp antagonist 3%, ClpP mod 4.4% and Sfp inh -25%.
Screening COc1cc(/C=C/C(=O)O)cc(S(=O)(=O)Nc2cccc(SC)c2)c1OC returned gsp agonist inconclusive, Menin MLL FP FL 1.0, PINK1 modulator 3.0%, D2 agonist -0.7, gsp antagonist 15%, ClpP mod 0.8% and Sfp inh 8%.
COc1ccc(-c2cc(NC(C)=O)c3ncc(-c4cccc(C(F)(F)F)c4)n3c2)c(OC)c1 was read as PINK1 modulator 4.7%, D2 agonist -4.7 and ClpP mod inconclusive.
Screening CC(OC(=O)c1cc(=O)c2ccccc2o1)C(=O)c1ccccc1 (configuration not stated) returned gsp agonist -11%, PINK1 modulator -1.0%, D2 agonist -0.4, gsp antagonist 6% and ClpP mod 2.1%.
Screening COc1ccc(C)cc1C(=O)CCC(=O)NCCc1ccc(S(N)(=O)=O)cc1 returned gsp agonist 10%, Menin MLL FP FL 2.1, PINK1 modulator 1.2%, D2 agonist -3.0, gsp antagonist 5%, ClpP mod -22% and Sfp inh 10%.
`Cc1cccc(CCNS(=O)(=O)c2ccc3c(c2)n(C)c(=O)c(=O)n3C)c1` gave gsp agonist 30%, Menin MLL FP FL 0.0, PINK1 modulator 2.5%, D2 agonist 1.1, gsp antagonist -3%, ClpP mod -18% and Sfp inh -12%.
O=P(c1ccccc1)(c1ccccc1)c1nc(-c2ccccc2)oc1NCc1ccccc1 was read as gsp agonist 28%, Menin MLL FP FL -3.6, PINK1 modulator 3.3%, D2 agonist 0.0, gsp antagonist 7% and Sfp inh 5%.
For COc1ccc(N2CCN(C(=O)COc3ccc(Cl)cc3Cl)CC2)cc1 the results were gsp agonist -58%[inhibitor], Menin MLL FP FL 1.9, PINK1 modulator 9.9%, D2 agonist 2.0, gsp antagonist -9%, ClpP mod -1.5% and Sfp inh 5%.
`COc1ccc(CNC(=O)c2ccc(SC)cc2OC)cc1` gave gsp agonist -16%, Menin MLL FP FL 4.6, PINK1 modulator -0.4%, D2 agonist -11, gsp antagonist -4%, ClpP mod 0.2% and Sfp inh 10%.
Screening Cn1c(SCC(=O)Nc2cccc(C(=O)O)c2)nnc1-c1cc2cc(Br)ccc2o1 returned gsp agonist -3%[15.4 µM], Menin MLL FP FL 0.8, PINK1 modulator 5.6%, D2 agonist 0.3, gsp antagonist -2% and Sfp inh 10%.
Screening Cn1c(=O)c(C(=O)CCl)c(N)n(Cc2ccccc2)c1=O returned gsp agonist -39%[inhibitor], Menin MLL FP FL -2.2, PINK1 modulator 0.0%, D2 agonist -2.8, gsp antagonist 8%, ClpP mod -3.0% and Sfp inh -2%.
`COc1cccc(N2CCN(C(=O)CCNS(=O)(=O)c3ccc(F)c(F)c3)CC2)c1` gave gsp agonist -12%, PINK1 modulator 0.6%, D2 agonist -0.3, gsp antagonist -7% and ClpP mod -1.8%.
Screening Cc1ccc(CNC(=O)CC(C)S(=O)(=O)c2cc3c(cc2C)NC(=O)CO3)cc1 (configuration not stated) returned gsp agonist 10%, Menin MLL FP FL -2.9, PINK1 modulator 1.5%&2.2%, D2 agonist 3.7, gsp antagonist 1%, ClpP mod 2.2%&-0.8% and Sfp inh 7%.
O=C(c1cc(-c2ccc(Cl)cc2)n(-c2ccc(Cl)c(Cl)c2)n1)N1CCOCC1 was read as gsp agonist -3%, Menin MLL FP FL 3.7, PINK1 modulator -2.4%, D2 agonist -3.9, gsp antagonist inconclusive, ClpP mod 1.3% and Sfp inh -6%.
For COCCN(C(=O)c1ccc(N2C(=O)c3ccccc3C2=O)cc1)c1c(N)n(CC(C)C)c(=O)[nH]c1=O the results were gsp agonist -32%[inhibitor], PINK1 modulator inconclusive, D2 agonist -2.2, gsp antagonist 14% and ClpP mod -1.5%.
`Cc1cc(C)c(NC(=O)COC(=O)C2CCC2)c(Cl)c1` gave gsp agonist 9%, PINK1 modulator -0.9%, D2 agonist -1.6, gsp antagonist 15%, ClpP mod 1.0% and Sfp inh 9%.
`O=C(O)CCS(=O)(=O)c1ccccc1Cl` gave gsp agonist 7%[15.4 µM], Menin MLL FP FL -1.9, PINK1 modulator 0.3%, D2 agonist -4.9 and Sfp inh 11%.
